Arbovirus inh = arbovirus infection inhibition | inhibition, % at 10 µM | 200,000 tested, 0.37% active | arbovirus infection cell-based antiviral screen;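 active means inhibition from about 30%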;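 further: bluetongue infection of BSR cells; cell survival read as ATP light after 72 h; 0% = infected wells without compound and 100% = uninfected wells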
RecA intein inh = Mtb RecA intein splicing inhibition. P9WHJ3. cell-free RecA intein splicing, fluorescence. inhibition, %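 (about 9 µM by stock and volumes)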. 290,000 tested, 0.75% active. AID 2221; in the data active means inhibition above about 30%; inconclusive means no clear call, values can overlap the other calls;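 further: 0% = vehicle wells and 100% = reference inhibitor control wells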
Target sequence (P9WHJ3 whole entry, looked up): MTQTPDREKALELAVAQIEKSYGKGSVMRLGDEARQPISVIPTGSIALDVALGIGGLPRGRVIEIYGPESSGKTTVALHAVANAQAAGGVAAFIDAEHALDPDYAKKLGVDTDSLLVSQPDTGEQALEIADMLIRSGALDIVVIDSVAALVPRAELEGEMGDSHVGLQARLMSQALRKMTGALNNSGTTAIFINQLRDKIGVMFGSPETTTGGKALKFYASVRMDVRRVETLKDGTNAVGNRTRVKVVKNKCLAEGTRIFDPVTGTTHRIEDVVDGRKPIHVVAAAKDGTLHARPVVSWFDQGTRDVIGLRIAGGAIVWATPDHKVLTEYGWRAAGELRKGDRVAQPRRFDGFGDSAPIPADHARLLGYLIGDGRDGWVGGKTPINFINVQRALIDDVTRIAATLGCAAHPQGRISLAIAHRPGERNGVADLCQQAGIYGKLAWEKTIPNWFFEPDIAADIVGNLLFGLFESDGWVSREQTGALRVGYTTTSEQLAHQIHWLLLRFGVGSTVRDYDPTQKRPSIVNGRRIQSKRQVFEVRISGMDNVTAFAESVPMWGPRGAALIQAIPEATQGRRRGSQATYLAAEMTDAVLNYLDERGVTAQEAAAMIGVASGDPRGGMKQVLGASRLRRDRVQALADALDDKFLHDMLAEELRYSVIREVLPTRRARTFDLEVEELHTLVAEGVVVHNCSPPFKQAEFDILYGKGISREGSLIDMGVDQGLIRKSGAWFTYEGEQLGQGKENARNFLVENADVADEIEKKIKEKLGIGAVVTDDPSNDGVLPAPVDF
YopH PTP inh = inhibitors of Yersinia enterocolitica YopH tyrosine phosphatase; fluorescence Ex485/Em525; inhibition, %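 (about 10 µM by stock and volumes)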; AID 898; 140,000 tested, 0.16% active;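 active means inhibition of 50% or more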;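 further: controls were vehicle for no effect and minimum signal wells for full effect; inactives centre near -20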
Mtb bLac sens = beta-lactam sensitization of Mtb H37Rv. 330,000 tested, 0.27% active. inhibition, % at 25 µM. M. tuberculosis H37Rv growth with meropenem, percent inhibition; hits of this screen are not shown here;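 active means about 74% or more and at least 40 points above the plate without the antibiotic, then above 30% in a dose series; inconclusive means first-round hits that could not be retested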;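 further: growth measured after seven days incubation then overnight dye step; 0% = bacteria only wells and 100% = bacteria with antibiotic; twin plates without the antibiotic show which effects depend on it; some results filed as inactive read as strong as hits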
Mtb growth = M. tuberculosis H37Rv growth inhibitors, H37Rv strain (AID 1626); inhibition, % at 10 µM, or IC50 in µM where a hit was titrated; M. tuberculosis H37Rv growth inhibition; higher % means a stronger effect; 220,000 tested, 0.95% active;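 active means confirmed in a dose series; inconclusive means inhibition above 80% but not taken into the dose series; inactive means below 80% or under 30% at every dose of the series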;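 further: bacteria incubated seven days before Alamar blue readout; 0% = bacteria only wells and 100% = bacteria with antibiotic wells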
Arbovirus inh repeat = also measured in Arbovirus inh; calls as there; inhibition, %; measured here: 10K subset replicate screen; many hits read low in the repeat;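 first of two repeat runs on a subset; 0% = infected and 100% = uninfected wells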
Numbers without * were called inactive; ? = inconclusive; . = not tested or not shown.

SMILES	Arbovirus inh	RecA intein inh	YopH PTP inh	Mtb bLac sens	Mtb growth	others
O=C(/C=C/Nc1ccccc1)c1ccc(Cl)cc1Cl	.	4.9	.	0	.
CNc1oc(-c2ccco2)nc1C#N	4	-1.7	-41	-5	-3%
CCc1c(C(=O)N/N=C/c2sccc2C)nnn1-c1nonc1N	.	-3.1	.	6	.
COC(=O)Cn1nc(-c2ccccc2)c2ccccc2c1=O	-6	1.4	-4	72	4%
COc1ccccc1C(=O)NCCC(=O)Nc1cccnc1	.	-0.7	.	-6	-9%
Cc1ccc2[nH]c3nc(N/N=C/c4cccc(O)c4)nnc3c2c1	.	-5.8	.	-1	.
CCOC(=O)C1CCN(Cc2ccccc2C(F)(F)F)CC1	-2	-0.1	-29	-10	0%
CSCCC(NC(=O)C12CC3CC(CC(C3)C1)C2)C(=O)OCC(=O)c1ccccc1 (stereo unspecified)	4	2.0	-24	1	5%
C=CCNC(=O)c1onc(CSc2ccc(OC)cc2)c1C(=O)O	-5	-0.9	-64	3	-12%
CC(=O)Nc1c(C)ccc2nsnc12	3	2.1	-25	-6	-1%
CCSC1=NC(C)(C)C=C(/C=C/c2ccc(Cl)cc2Cl)N1	-35	16	3	58	53%
CCOc1cc(CNc2ccc3cn[nH]c3c2)ccc1OC	-19	77*	3	82	34%
Cc1cccc(-c2nc(S(=O)(=O)c3ccccc3)c(N3CCOCC3)o2)c1	.	-6.3	.	7	.
Cc1cc(C)c(S(=O)(=O)c2ccccc2Cl)c(=O)[nH]1	.	3.8	.	3	.
Cc1cc2occ(CC(=O)O)c2cc1C	2	1.9	-30	-3	-3%

Sorted by formula weight (high to low): part of the list above
SMILES	Arbovirus inh	RecA intein inh	YopH PTP inh	Mtb bLac sens	Mtb growth	others
CSCCC(NC(=O)C12CC3CC(CC(C3)C1)C2)C(=O)OCC(=O)c1ccccc1 (stereo unspecified)	4	2.0	-24	1	5%
Cc1cccc(-c2nc(S(=O)(=O)c3ccccc3)c(N3CCOCC3)o2)c1	.	-6.3	.	7	.
C=CCNC(=O)c1onc(CSc2ccc(OC)cc2)c1C(=O)O	-5	-0.9	-64	3	-12%
CCc1c(C(=O)N/N=C/c2sccc2C)nnn1-c1nonc1N	.	-3.1	.	6	.
CCSC1=NC(C)(C)C=C(/C=C/c2ccc(Cl)cc2Cl)N1	-35	16	3	58	53%
CCOC(=O)C1CCN(Cc2ccccc2C(F)(F)F)CC1	-2	-0.1	-29	-10	0%
COc1ccccc1C(=O)NCCC(=O)Nc1cccnc1	.	-0.7	.	-6	-9%
Cc1cc(C)c(S(=O)(=O)c2ccccc2Cl)c(=O)[nH]1	.	3.8	.	3	.
CCOc1cc(CNc2ccc3cn[nH]c3c2)ccc1OC	-19	77*	3	82	34%
COC(=O)Cn1nc(-c2ccccc2)c2ccccc2c1=O	-6	1.4	-4	72	4%
O=C(/C=C/Nc1ccccc1)c1ccc(Cl)cc1Cl	.	4.9	.	0	.
CC(=O)Nc1c(C)ccc2nsnc12	3	2.1	-25	-6	-1%
Cc1cc2occ(CC(=O)O)c2cc1C	2	1.9	-30	-3	-3%
CNc1oc(-c2ccco2)nc1C#N	4	-1.7	-41	-5	-3%

Remaining list, next part
SMILES	Arbovirus inh	RecA intein inh	YopH PTP inh	Mtb bLac sens	Mtb growth	others
Cc1cccc(C(=O)N[C@H](C(=O)Nc2nnc(C3CC3)s2)C(C)C)c1	9	-0.8	-13	1	-1%
O=C(c1ccc(F)cc1)N1CCC(C(=O)N2CCN(S(=O)(=O)c3cccc([N+](=O)[O-])c3)CC2)CC1	.	-1.9	.	-4	.
CCOC(CNC(=O)c1nnc(Cc2cc(OC)c(OC)c(OC)c2)o1)OCC	-2	1.0	.	-15	-2%
CCOC(=O)C1=C(CN2CCSCC2)NC(=O)NC1c1cc(C)ccc1C (stereo unspecified)	-11	1.6	-6	3	8%
O=C(NCC(=O)N1CCOCC1)c1ccc(Br)cc1	.	0.8	.	-27	.
COc1ccc(CC(=O)NCC2CCCN(Cc3ccc(F)cc3F)C2)cc1 (stereo unspecified)	.	1.1	.	-5	.
CC(C)CN(CC(C)C)CC(O)CN(c1ccccc1)S(=O)(=O)c1ccccc1[N+](=O)[O-] (stereo unspecified)	.	-1.8	.	1	.
CCNC(=O)CN(C1CCCCC1)S(=O)(=O)c1ccc(F)cc1	-3	0.8	-54	-5	-8%	Arbovirus inh repeat=1
CNC(=O)c1ccsc1NC(=O)CCS(=O)(=O)c1ccc(C)cc1	.	-0.1	.	2	.
COc1ccc(N=C(N)SCc2ccccn2)cc1	-1	4.8	-25	-2	2%
CC(C)=CC(=O)Nc1nnc(-c2ccc(F)cc2)s1	-13	-0.8	-13	-2	13%
CC(C)(C)C(=O)N1CCN(c2ccc(NC(=O)c3ccc4c(c3)OCCO4)cc2)CC1	.	-4.5	.	4	.
O=C1CC(c2cc3c(cc2Br)OCO3)C2=C(CCCC2=O)N1 (stereo unspecified)	4	-0.6	-35	-2	.
CCCCOc1ccccc1N1CCN(CCCN2C(=O)C3CCCN3C2=O)CC1 (stereo unspecified)	.	-0.4	.	-1	.
N#Cc1ccc(CSc2nnc(-c3c[nH]c4ccccc34)n2-c2ccccc2)cc1	11	8.6	.	-11	2%
CC1CCc2c(sc3nc(C(C)(C)C)nc(N4CCN(C(=O)CCl)CC4)c23)C1 (stereo unspecified)	.	83*	.	100	.
Cn1c(NC(=O)c2cccc(Cn3cc(Cl)cn3)c2)nc2ccccc21	-15	-0.8	4	55	85%
CC[C@H](C)[C@H](NC(N)=O)C(=O)NCCc1ccc(Cl)cc1	13	0.7	.	6	6%
CC(C(=O)Nc1ccccc1-c1ccccc1)N1CCCCC1 (stereo unspecified)	8	-1.3	-13	90	6%
Cc1ccc(C(=O)N2NC(c3ccc(F)cc3)C3C(=O)N(c4ccc(C)c(C)c4)C(=O)C32)cc1 (stereo unspecified)	1	0.7	-38	-2	.
COC(=O)C(Cc1csc2ccc(Cl)cc12)NC(=O)c1ccc(Cl)cc1 (stereo unspecified)	.	0.8	.	-6	15%
Cn1cnnc1SC/C(O)=C(\C#N)c1nc2ccccc2[nH]1	3	-2.7	-17	-8	15%
c1ccc(CNc2nc(CN3CCOCC3)nc3scc(-c4ccccc4)c23)cc1	-12	7.7	-20	.	13µM*
COc1ccc(/C(O)=C2/C(=O)C(=O)N(CCN(C)C)C2c2ccc(F)cc2)cc1Cl (stereo unspecified)	5	-2.0	-5	0	-9%
CC(C)C(=O)NCCn1ccc2ccccc21	18	-1.1	-32	-13	-1%
COc1cc2cc(C)c(SCC(=O)N3CCN(C(=O)c4ccco4)CC3)nc2cc1OC	.	-1.6	.	1	.
CC1(C)C(=O)OC(C(=O)c2ccccc2)C(C)(C)C1=O (stereo unspecified)	9	0.9	-100	2	-6%	Arbovirus inh repeat=-3
CSc1nccn1C(=O)c1ccccc1[N+](=O)[O-]	.	1.8	.	1	.
C/C(=N\NC(=O)C1CC1(c1ccccc1)c1ccccc1)c1cccc([N+](=O)[O-])c1 (stereo unspecified)	-1	-0.5	-16	6	-5%
CCN1C(=O)CS/C1=N\S(=O)(=O)c1ccc(C)cc1	6	0.3	.	-10	2%

Three structures out of the list, ordered by SMILES length, ascending:
SMILES	Arbovirus inh	RecA intein inh	YopH PTP inh	Mtb bLac sens	Mtb growth	others
CC(C)C(=O)NCCn1ccc2ccccc21	18	-1.1	-32	-13	-1%
COC(=O)C(Cc1csc2ccc(Cl)cc12)NC(=O)c1ccc(Cl)cc1 (stereo unspecified)	.	0.8	.	-6	15%
COc1ccc(/C(O)=C2/C(=O)C(=O)N(CCN(C)C)C2c2ccc(F)cc2)cc1Cl (stereo unspecified)	5	-2.0	-5	0	-9%

Later entries:
SMILES	Arbovirus inh	RecA intein inh	YopH PTP inh	Mtb bLac sens	Mtb growth	others
COCCNC(=O)CSc1nnc2c(Cl)cc(Cl)cn12	-3	1.3	-1	-1	-2%
Cc1cc(/C=C2\NC(=O)NC2=O)c(C)n1-c1ccc(N2CCOCC2)cc1	.	-0.7	.	30	0%
O=C(C1CCN(S(=O)(=O)N2CCOCC2)CC1)N1CCN(c2ccccc2)CC1	10	-0.5	-48	-6	-4%
O=C(COC(=O)c1ccc2c(c1)OCO2)NCc1ccc2c(c1)OCO2	-1	-1.0	-23	-9	-9%
O=C(Nc1ccc(Cl)c([N+](=O)[O-])c1)c1cnccn1	6	3.4	-20	6	2%
Cc1ccc(S(=O)(=O)/N=C(/Nc2cccc3ccccc23)c2ccc(F)cc2)cc1	.	-2.1	.	-1	.
O=Cc1c(N2CCCCC2)nc2ccccn2c1=O	2	1.4	.	-4	-5%
CCc1ccc(S(=O)(=O)Nc2cc(SCC(=O)O)c(O)c3ccccc23)cc1	-4	94*	.	4	-7%
COc1cc(OC)c(C(=O)NCCCn2ccnc2)cc1OC	-3	-2.9	.	-7	-6%
C/C(=N\NC(=O)C1COc2ccccc2O1)c1cccs1 (stereo unspecified)	5	-2.0	-19	1	2%
COC(=O)c1cc(N2C(=O)C3C(C2=O)C2(C)C=CC3(C)O2)ccc1Cl (stereo unspecified)	-9	-0.3	-47	7	0%
CN(Cc1cc(=O)n2ccsc2n1)c1ccccc1	6	-0.1	-24	-9	-1%
CCc1nnc(NS(=O)(=O)c2ccc(NC(=O)c3ccccc3OC)cc2)s1	.	1.4	.	4	.
CCn1nc(C(=O)NCCc2ccc(S(N)(=O)=O)cc2)c2ccccc2c1=O	-3	.	-6	-5	-3%
N#C/C(=C\c1ccccc1O)C(=O)Nc1ccccn1	.	0.0	.	8	.
COCCNC(=O)CSc1nc2scc(-c3ccccc3)c2c(=O)[nH]1	.	-1.0	.	-2	-7%
Cc1ccc(S(=O)(=O)N(C)c2ccc(C(=O)NCc3cccnc3)cc2)cc1	.	0.9	.	1	.
CC(Oc1cccc2c1OC(C)(C)C2)C(=O)O (stereo unspecified)	1	-7.4	-16	-3	4%
Nc1nc(NCCO)nc(N2CCCCCC2)c1[N+](=O)[O-]	.	1.2	.	4	.
CCN(CCCNC(=O)CCn1c(=O)[nH]c2ccsc2c1=O)c1ccccc1	0	-0.9	.	-4	-2%
CCCCOc1ccc(N(CC(=O)NCc2ccco2)C(=O)CCC(=O)Nc2nccs2)cc1	.	-1.8	.	-4	.
Cc1sc2c(c1C)c(=O)n(-c1ccc(F)cc1)c(=O)n2CC(=O)NCc1ccco1	-16	.	-33	.	-14%
N#CC1=C(N)N(c2ccccc2)C(c2ccccc2)C1(C#N)C#N (stereo unspecified)	-14	43*	-7	19	-9%
CCOc1ccccc1CN1CCN(Cc2cc3ccccc3[nH]2)CC1CCO (stereo unspecified)	-7	3.8	.	-4	3%
CCOC(=O)c1cnn(-c2ccccn2)c1N	2	-7.6	-47	32	2%
CCCNC(=O)NC1CCCCCCC1	5	-1.0	.	1	-4%
NC(=O)CC(NC(=O)Cc1ccc(Br)cc1)c1ccc(NCCN2CCOCC2)c([N+](=O)[O-])c1 (stereo unspecified)	.	0.9	.	-1	.
Cc1cc(N2CCN(C)CC2)nc2ccc(NC(=S)NCCCN3CCN(C)CC3)cc12	8	-2.3	.	-6	1%
C/C(=N\Nc1ccc(F)cc1)c1ccncc1	-35	0.9	-14	7	?
CSc1ccccc1NC(=O)COC(=O)CSc1ccc(C)cc1	.	-5.2	.	-16	.
CC(C)Cn1c(O)c(N=NC(=O)c2cccc(S(=O)(=O)N3CCCCC3)c2)c2ccccc21	-9	4.7	-9	-2	15%
Cc1ccc2c(c1)N(CCC(=O)NC1CCCCC1)C(=O)CO2	.	1.9	.	2	.
COc1ccc(OC)c(C2=NS(=O)(=O)N(C)C(C(=O)Nc3ccc(C(C)=O)cc3)=C2)c1	.	0.9	.	-1	.
CCOC(=O)c1cccc(COC(=O)c2cccc(-c3nnc(-c4ccccc4)o3)c2)c1	5	1.5	-21	-1	3%
CC(/C=C/c1ccccc1)=N\NC(=O)CNC(=O)c1ccccc1Cl	-8	-3.2	-29	-1	2%
Cc1ccc(C(=O)NNC(=O)C2CCN(S(=O)(=O)c3ccc(Cl)cc3)CC2)cc1	1	-0.9	-22	2	-11%
COC(=O)c1ccc(CSc2nnc(CNC(=O)c3cccs3)o2)o1	0	-4.3	-14	-2	-7%
CC(=O)c1ccc(NC(=S)N2CCC(O)CC2)cc1	-5	0.7	-42	8	1%
Oc1cccc(/C=N\Nc2nncc(-c3ccccc3)n2)c1	-1	0.8	.	1	0%
Cc1ccc(C)c(NNC(=O)C(=O)NNc2cc(C)ccc2C)c1	.	-1.0	.	81	20%
CC(C)C[C@@H](CN(N=O)[C@@H](Cc1ccccc1)CN(C)N=O)N(CCc1ccccc1)N=O	6	-3.7	.	-14	-3%

From PubChem

The list is partial; count on the stated rates, not on these rows.
